TRPML1 ag: agonists of human TRPML1 channel. Q9GZU1. TRPML1-expressing cells, Ca2+ dye fluorescence, FDSS; host cell line not named in the record; reference of the full effect not given here. activation, % (test concentration not listed). 0.12% of 410,000 active. AID 624414; in the data active = activation above about 50%; inconclusive = about 30% to 50%; inactive = below about 30%; note: 0% is about no effect; the text of the record puts the active cut at 80%
Target sequence (Q9GZU1 whole entry, looked up): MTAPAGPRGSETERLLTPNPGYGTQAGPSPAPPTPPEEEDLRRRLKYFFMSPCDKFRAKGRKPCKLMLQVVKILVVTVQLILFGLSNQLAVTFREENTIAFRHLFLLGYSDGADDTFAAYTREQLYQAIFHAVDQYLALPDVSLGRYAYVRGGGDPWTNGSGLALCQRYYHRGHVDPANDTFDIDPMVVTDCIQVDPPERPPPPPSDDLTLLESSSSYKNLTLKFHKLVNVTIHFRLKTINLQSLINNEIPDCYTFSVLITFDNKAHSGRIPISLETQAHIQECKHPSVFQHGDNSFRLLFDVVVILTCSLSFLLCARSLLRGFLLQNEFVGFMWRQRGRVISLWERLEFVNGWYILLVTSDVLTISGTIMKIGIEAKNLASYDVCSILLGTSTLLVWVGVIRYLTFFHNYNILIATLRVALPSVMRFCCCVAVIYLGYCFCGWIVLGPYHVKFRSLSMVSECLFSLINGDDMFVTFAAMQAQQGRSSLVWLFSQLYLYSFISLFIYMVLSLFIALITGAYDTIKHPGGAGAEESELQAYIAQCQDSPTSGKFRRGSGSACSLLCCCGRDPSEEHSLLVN
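Tetracycline-induced TRPML1-DL cells are seeded and incubated overnight before loading with a no-wash Ca2+ dye and quencher. Agonist activity is taken from the 110 s fluorescence read following compound pin-transfer on an FDSS, before EC80 54-4 challenge.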
D2 agonist: human D2 receptor agonism in beta-arrestin assay; P14416; DiscoveRx PathHunter D2 beta-arrestin, luminescence, 90 min; 100% = 57 uM dopamine signal; activation, % (concentration not given with the values); 0.084% of 360,000 active; AID 624465; in the data active = activation above about 40%; inconclusive = about 15% to 40%; inactive = below about 15%; note: compound concentration not given in the record; the text of the record calls up to 30% inactive
Target sequence (P14416 whole entry, looked up): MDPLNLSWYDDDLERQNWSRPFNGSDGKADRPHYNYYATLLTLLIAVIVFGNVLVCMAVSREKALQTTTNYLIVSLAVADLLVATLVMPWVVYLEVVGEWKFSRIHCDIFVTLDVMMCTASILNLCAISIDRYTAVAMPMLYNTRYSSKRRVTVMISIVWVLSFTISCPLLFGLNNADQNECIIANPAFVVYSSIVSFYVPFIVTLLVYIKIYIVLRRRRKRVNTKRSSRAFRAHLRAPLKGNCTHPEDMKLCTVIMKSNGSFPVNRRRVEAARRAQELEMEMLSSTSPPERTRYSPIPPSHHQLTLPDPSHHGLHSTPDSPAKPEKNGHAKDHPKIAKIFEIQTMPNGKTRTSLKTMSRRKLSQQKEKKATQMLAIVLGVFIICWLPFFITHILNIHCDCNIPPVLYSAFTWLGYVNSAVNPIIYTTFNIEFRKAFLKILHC
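Agonist mode: compounds alone added to overnight-plated D2 PathHunter cells for 90 min at 37 C, with 57 uM final dopamine (EC100) defining full response. Beta-arrestin recruitment detected by chemiluminescent reagent, read after 1 h at ambient temperature.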
Six1-Eya2 inh: blocks human Six1 binding to Eya2 | 0.56% of 360,000 active | AlphaScreen GST-Six1/His-Eya2 binding, biochemical; hits give low values; control for the full effect not named in the record | AID 651725 | activity change, % (test concentration not listed); in the data active = activity change below about -65%; inconclusive = about -30% to -65%; inactive = above about -30%; note: % is set by controls: 0 for no effect and ±100 for the full control effect; compound concentration not given in the record
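GST-Six1 + His-Eya2 (5X stock: 250/500 nM); Tris pH 8.0, 300 mM NaCl, 0.05% BSA, 0.02% Tween 20; GSH donor/Ni acceptor beads; 1 h 37 °C dark; AlphaScreen readout.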
TRPML1 inh: inhibitors of human TRPML1 channel; Q9GZU1; TRPML1-inducible cells, Ca2+ dye fluorescence, FDSS; hits give low values; inhibition of EC80 agonist-evoked calcium signal; activity change, negative = inhibition, % (no concentration beside the values); 0.02% of 390,000 active; in the data active means activity change below about -50%; inconclusive means about -30% to -50%; inactive means above about -30%;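 note: stimulus is agonist 54-4 at its EC80 concentration; % is set by controls: 0 for no effect and ±100 for the full control effect; compound concentration not given in the record; the text of the record puts the active cut at -80%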
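TRPML1-DL cells, Tet-induced overnight (~16 h, 37 °C) at 1,500 cells/well, were loaded with Ca8 no-wash dye plus quencher for 45-90 min at room temperature. Compounds were pinned during FDSS kinetic reading; agonist 54-4 at EC80 (4 uM final) then added.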
D2 PAM: positive allosteric modulators of human D2 dopamine receptor. P14416. DiscoveRx D2 beta-arrestin cells, luminescence, 90 min; 100% = 57 uM dopamine signal. potentiation, % (concentration not given with the values). 0.23% of 360,000 active; active = potentiation of 50% or more; inconclusive = 30% to 50%; inactive = 30% or less;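 note: compound concentration not given in the record; tested on top of an EC20 dose of dopamine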
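PathHunter D2 cells, attached overnight at 37 deg C, received compound in DMSO plus dopamine at EC20 (50 nM final) for 90 min at 37 deg C. Beta-arrestin recruitment was read as luminescence after 1 h with detection reagent at ambient temperature.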
PINK1 expr mod: modulators of PINK1 expression; AID 624263; 0.2% of 410,000 active; PINK1 immunofluorescence, high-content cytometry, 24 h; Potency, µM (series often up to 76.6 µM), for the others: at the highest dose activation (PINK1 increase), actives largely listed as activators; active = well fitted activation curve with a large enough effect; inconclusive = small, poorly fitted or top-dose-only effect; inactive = flat fitted curve, though single readings scatter; cell line not stated here;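 note: potency is the fitted concentration of half-maximal effect; % of control where 0% means no effect; nearly all actives have a fitted effect of over 65% in size; a mitochondrial uncoupler was the plate control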
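Measures PINK1 amount and localization on or inside mitochondria by immunofluorescence. Stable cells get compounds at 5 concentrations for 24 hours before fixation and staining; CCCP controls included.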
Starred values were filed as active, the others as inactive; u = inconclusive; x = not tested or not shown; [ ] = another dose, or the depositor's remark.

SMILES	TRPML1 ag	D2 agonist	Six1-Eya2 inh	TRPML1 inh	D2 PAM	PINK1 expr mod
O=C(/N=C1/c2ccccc2CN1c1ccccc1)Nc1ccccc1	28.4	-4.3	-1.4	1.0	-15.9	-0.2%
O=C(NC1CCSc2ccccc21)c1ccc(Cl)c(S(=O)(=O)N2CCOCC2)c1 (stereo not given)	-0.1	-0.9	-4.2	-10.0	9.0	10.6%
CN(C)S(=O)(=O)c1cccc(COc2ccccc2C(=O)Nc2ccccc2)c1	1.7	-0.9	1.5	59.6	-7.0	-0.8%
CCCc1cc2c(=O)c(-c3cscn3)c(C(=O)OCC)oc2cc1O	2.9	4.5	3.4	-8.7	-2.3	-0.4%
CCOc1ccc(Oc2cc(C)nc(SC)n2)nn1	-0.2	-1.1	7.8	-13.1	-3.4	-1.3%
CCOc1ccc2nc(N(CCCN(C)C)C(=O)c3ccc4c(c3)CCCC4)sc2c1	2.0	-6.0	-12.7	-0.2	-53.1	-1.8%
CCOc1ccccc1NC(=O)Cn1cc(C(=O)c2ccc(Cl)cc2)c(=O)c2ccc(C)nc21	-0.5	x	x	-5.3	x	1.8%
COCCNC(=S)N/N=C(\C)c1cccc(C(F)(F)F)c1	1.4	3.2	-4.3	-4.8	-13.5	6.3%
O=C(Nc1ccc(Br)cc1)C1C2C=CC3(O2)C1C(=O)N(CCN1CCOCC1)C3C(=O)NC1CCCCC1 (stereo not given)	0.1	2.3	3.0	12.5	-8.3	2.3%
CCC(Oc1cc(Cl)ccc1Cl)C(=O)NNC(=O)CCC(=O)O (stereo not given)	1.0	-1.7	0.2	0.3	-5.7	1.4%
O=c1oc2ccccc2cc1-c1ccc(O)cc1O	2.6	2.0	-6.6	5.2	-3.3	2.2%
Cc1ccc2cc(C(c3nnnn3Cc3ccccc3)N3CCc4ccccc43)c(=O)[nH]c2c1 (stereo not given)	2.4	-1.2	-16.5	-10.0	2.9	6.0%[38.3 µM]
CCOc1cccc(-c2nnc3n2N=C(c2cc(OC)ccc2OC)CS3)c1	5.0	-3.6	-11.4	64.5	-24.9	-1.7%
Cc1cccc(CN2CCN(C(=S)Nc3ccccc3)CC2)c1	0.8	1.8	-0.4	3.7	-11.4	-1.4%
Cc1onc(-c2ccccc2)c1C(=O)N1CCC(C)(C(=O)NS(=O)(=O)C2CC2)C1 (stereo not given)	-0.7	6.0	-2.2	x	5.9	0.5%
Cc1ccc(NC(=O)/C(=C/c2ccc([N+](=O)[O-])cc2)NC(=O)c2ccccc2)cc1	0.4	-3.0	15.4	-17.2	-7.0	7.8%
Cc1nn(-c2cccc(C(=O)O)c2)c(C)c1Oc1ccccc1O	0.0	-0.3	6.6	1.1	-11.0	-2.5%
O=C(NCc1ccc(Cl)c(Cl)c1)c1cc(C2CCCCN2C(=O)CCc2ccccc2)on1 (stereo not given)	0.3	-4.8	-0.8	x	-10.7	1.4%
O=C(NCCN1CCOCC1)c1cc2ccccc2o1	-0.2	1.0	3.4	-2.1	-4.4	-0.3%
CN(C)S(=O)(=O)c1cccc(NC(=O)CC23CC4CC(CC(C4)C2)C3)c1	1.2	-2.3	5.2	2.4	-21.7	1.7%
OCCNc1nnc(-c2ccccc2)c(-c2ccccc2)n1	4.0	-4.4	-0.6	33.1	-6.9	-1.1%
CCc1ccc(CNC(=O)c2ccc(Cn3c(=O)c4cccn4c4cccnc43)cc2)cc1	0.5	x	x	-18.0	x	-1.1%
COc1cccc2cc(C(=O)C3=C(O)C(=O)N(CCN4CCOCC4)C3c3ccc(C)o3)oc12 (stereo not given)	-0.9	-9.3	-1.0	28.6	-28.0	-1.2%
O=C(CCN1CCOCC1)Nc1cc(C(=O)Nc2ccc(Cl)cc2)ccc1N1CC2CC(C1)c1cccc(=O)n1C2 (stereo not given)	-0.7	-2.8	-0.2	5.3	-7.7	0.2%
CCOC(=O)N1CCN(/[N+]([O-])=N/Oc2ccc(C(F)(F)F)cc2[N+](=O)[O-])CC1	1.3	x	x	-24.5	x	-0.4%
Cc1c(N2C(=O)CS/C2=N\N=C\c2ccccc2O)c(=O)n(-c2ccccc2)n1C	-0.1	-0.4	0.6	25.1	-9.3	-3.2%[38.3 µM]
COc1ccc(-c2ccc(OC)cc2)cc1	-0.5	-5.3	2.8	17.4	10.3	0.5%
CC(CNC(=O)CN1C(=O)NC2(CCCCC2)C1=O)c1ccccc1 (stereo not given)	0.6	0.2	0.3	-4.4	-2.8	-1.1%
COc1cc(C)c(CN2CCN(S(=O)(=O)c3ccc(Cl)s3)CC2)cc1OC	1.2	1.4	-23.6	-8.6	-3.8	0.4%
CC(c1ccccc1)N1C(=O)c2ccc(C(=O)Nc3ccccc3C(=O)O)cc2C1=O (stereo not given)	1.3	5.9	-9.0	43.2	26.9	1.3%
Cc1ccc(NC(=O)CSc2nnc(C3CC3)n2CC2CCCO2)cc1C (stereo not given)	-0.4	0.2	-4.9	-7.3	-6.9	-0.5%
COc1ccc(-c2nnc(-c3cccnc3)o2)cc1	-0.4	-4.7	0.7	20.7	-5.8	-1.9%
CCOc1ccccc1CNn1nnnc1N	-1.6	2.8	0.3	5.2	-5.3	1.0%
CCOC1=C2[C@@H](CN(S(=O)(=O)c3ccc(C)cc3)[C@H]2c2ccc(CC)cc2)[C@H]2C(=O)N(C)C(=O)[C@H]2C1	0.3	-7.4	4.1	0.7	-9.6	3.8%
COc1ccc(CCNS(=O)(=O)c2cc(-c3cc(C)no3)ccc2C)cc1OC	0.9	x	x	-10.8	x	1.7%
N#CC(=C(O)COC(=O)CCCNC(=O)c1ccc(Cl)cc1)c1nc2ccccc2[nH]1	1.8	1.0	-11.5	-3.1	7.0	0.7%
Cc1ccc(S(=O)(=O)N2CCCN(C(=O)OC(C)(C)C)CC2)cc1	0.8	0.0	-11.3	-7.3	-5.0	6.9%
CCC(C)[C@H]1CN=C(N)N1CC1CCCCC1 (stereo not given in full)	-0.8	-0.7	1.3	28.5	-23.6	2.9%
COc1ccc2nc(NC(=O)CN3C(=O)NC4(CCCCC4)C3=O)sc2c1	0.4	-2.2	11.4	-14.1	-7.6	-1.7%
Cc1ccc(C)c(S(=O)(=O)Nc2ccc3sc(C)nc3c2)c1	1.4	3.8	-1.1	48.1	-17.4	1.1%
CCOc1ccc(S(=O)(=O)N2CCOCC2)c2ccccc12	0.0	-2.6	-0.3	1.8	-4.1	11.9%
CCCOC(=O)c1ccc(NC(=O)c2ccc(Br)o2)cc1	1.5	-1.2	6.6	-21.0	-11.8	3.4%
NC(=O)c1csc(-c2ccncc2)n1	0.6	-0.3	-1.3	0.5	-5.1	-0.2%
CC(C)(CNC(=S)NCCc1ccccc1)CNC(=S)NCCc1ccccc1	1.1	2.2	-25.6	19.9	-8.2	u
CSc1ccccc1NC(=O)c1ccc(Br)o1	3.8	-1.9	0.4	-4.2	-8.5	2.3%

Part of the list above in order of molar mass, rising:
SMILES	TRPML1 ag	D2 agonist	Six1-Eya2 inh	TRPML1 inh	D2 PAM	PINK1 expr mod
Cc1ccc(NC(=O)CSc2nnc(C3CC3)n2CC2CCCO2)cc1C (stereo not given)	-0.4	0.2	-4.9	-7.3	-6.9	-0.5%
COc1ccc2nc(NC(=O)CN3C(=O)NC4(CCCCC4)C3=O)sc2c1	0.4	-2.2	11.4	-14.1	-7.6	-1.7%
N#CC(=C(O)COC(=O)CCCNC(=O)c1ccc(Cl)cc1)c1nc2ccccc2[nH]1	1.8	1.0	-11.5	-3.1	7.0	0.7%

Following part:
SMILES	TRPML1 ag	D2 agonist	Six1-Eya2 inh	TRPML1 inh	D2 PAM	PINK1 expr mod
CC(=O)NCCSC(=O)c1ccc(F)cc1	0.9	-0.9	5.9	-6.6	-1.9	0.0%
O=C(O)c1ccc(NS(=O)(=O)c2cc(Cl)ccc2Cl)cc1	-0.4	1.0	1.0	27.0	25.0	-3.6%
COc1cc(OC)cc(C(=O)NCC(=O)OCc2nc3ccccc3s2)c1	0.2	-4.1	-2.1	-0.4	-7.7	0.4%
Cc1cc(C)cc(NC(=O)C(C)N2Cc3ccccc3C2=O)c1 (stereo not given)	1.2	x	x	-16.7	x	0.4%
O=C(COc1ccc(Cl)cc1Cl)NCc1ccncc1	-0.2	-0.5	-0.4	6.3	-6.2	2.7%
CC(=O)c1cc(-c2ccccc2)n(CC(=O)NCc2ccccc2C)c1C	-0.3	x	x	-9.8	x	8.0%
Cc1ccsc1/C=N/NC(=O)c1cccc(S(=O)(=O)Nc2ccccc2Cl)c1	0.9	-2.4	-22.6	-20.2	-16.9	4.6%
COc1ccc(NC(=O)CCC(=O)N/N=C/c2ccc([N+](=O)[O-])s2)cc1	0.9	12.4	-9.6	-6.5	13.9	u
O=C(NCc1cccnc1)C1CCN(c2ccc(S(=O)(=O)N3CCOCC3)cc2Cl)CC1	-0.4	0.1	-6.0	9.9	-2.9	8.6%
COc1ccc(C(=O)NCCc2c[nH]c3ccccc23)cc1S(=O)(=O)N1CCOCC1	-0.4	-1.8	0.7	2.6	-5.0	0.2%
CSc1nsc(SC)c1NC(=O)Nc1ccccc1C	0.1	3.8	-2.5	9.6	-6.1	-1.0%
O=C(Cn1c2ncccc2c(=O)n1-c1ccccc1)NCc1ccccc1	2.9	x	x	20.0	x	0.4%
Cc1ccc(N2C(=O)c3oc4cc(C)c(C)cc4c(=O)c3C2c2cccc(O)c2)nc1 (stereo not given)	0.0	x	x	1.8	x	0.3%
CCCNC(=O)[C@H]1N2C(=O)c3c(ccc(OC)c3OC)C2SC1(C)C (stereo not given in full)	-1.3	-3.4	4.1	-5.2	-2.2	-1.1%
COc1ccc(OCC(=O)N/N=C/c2cccn2-c2cccc(C(=O)O)c2)cc1	0.9	-4.5	-20.6	14.9	-12.6	-1.9%
O=C(NCc1ccccc1)C1CCN(c2nc(-c3ccccc3)nc3c2CCC3)CC1	0.2	-3.2	-12.6	12.1	-11.3	1.7%
Cc1oc2ncn(CC(C)C)c(=O)c2c1C(=O)NCCc1ccccc1	-0.1	x	x	15.8	x	5.6%
O=C(Nc1cc(F)cc(F)c1)c1sc(Cl)nc1-c1ccccc1	-0.6	5.9	7.1	1.0	-9.0	u
COc1ccc(S(=O)(=O)N2CCOCC2)cc1NC(=O)CSc1cc(C)ccc1C	1.9	0.3	11.7	12.4	-3.6	-0.8%
Cc1cccc(C(=O)N2CCc3ccccc3C2)c1[N+](=O)[O-]	-1.0	10.0	4.7	6.0	-3.5	1.8%
CCn1cc(CNC(=O)c2cc([N+](=O)[O-])c(C)c([N+](=O)[O-])c2)cn1	0.3	1.3	6.4	21.2	-6.0	-1.4%
CC[C@H](C)[C@@H](NC(=O)O[C@@H]1C(=O)c2cc(OC)ccc2O[C@H]1c1ccc(OC)c(Br)c1)C(=O)OC	-0.3	-2.6	-3.3	-5.3	-13.0	-1.7%
O=C(c1ccco1)N1CCN(C(c2ccc(Cl)cc2)c2nnnn2Cc2ccccc2)CC1 (stereo not given)	0.0	-2.6	-2.6	1.2	-9.9	0.2%
Cc1cccc(C)c1NC(=O)CN(C)C(=O)c1cccc(S(=O)(=O)N2CCN(C)CC2)c1	-0.2	-0.9	-1.2	-9.5	-2.4	0.9%
Cc1ccc(-c2onc(C)c2C)cc1S(=O)(=O)Nc1ccccn1	0.7	x	x	32.2	x	-0.5%
Cc1cccc(N2CCN(c3nnc(C(F)(F)F)s3)CC2)c1	3.8	-2.7	-1.0	14.4	-5.3	1.0%

Bioassay records: PubChem BioAssay, National Center for Advancing Translational Sciences (NCATS)
